gsp agonist: agonists of gsp mutant (McCune-Albright syndrome); gsp mutant cells, cAMP HTRF, 30 min; control for the full effect not named in the record; Potency, µM (top dose mostly 76.9 µM), for the others: at the top dose activation (cAMP increase), most hits filed as activators; actives 0.13% (n = 340,000); active = well fitted activation curve with a large enough effect; inconclusive = small, poorly fitted or top-dose-only effect, or another doubt; inactive = no such curve, though single readings can be large or run the other way; cell line not stated here;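 also: phosphodiesterase inhibitor Ro 20-1724 added with compounds to block cAMP breakdown; potency is read from the fitted curve at half-maximal effect; nearly all actives have a fitted effect of over 60% in size; about a fifth of the inactives were tested at one dose only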
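Cells in DMEM/10% FBS with G418 were pretreated with compounds in DMSO plus […] (300 uM stock) for 30 min at 37C. cAMP was measured by HTRF (cAMP-d2 plus anti-cAMP antibody-K) after 30 min at room temperature.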
CtBP-E1A inh: blocks the CtBP interaction with E1A; AlphaScreen GST-E1A/His-CtBP binding, 1536-well; active compounds read low; control for the full effect not named in the record; activity change, % (test concentration not listed); actives 0.49% (n = 340,000); AID 651724; in the data active means activity change below about -65%; inconclusive means about -30% to -65%; inactive means above about -30%; also: % is scaled to controls: 0 for no effect and ±100 for the full control effect
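Protein mix (5X: 125 nM each GST-E1A, His-CtBP) was incubated with pinned compound 2 h at 37 deg C in dark, in 50 mM Tris pH 8.0 buffer with 300 mM NaCl. Glutathione donor and nickel acceptor beads followed; AlphaScreen signal read after 1 h.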
D2 agonist: agonists of human D2 dopamine receptor (beta-arrestin) | actives 0.084% (n = 360,000) | DiscoveRx PathHunter D2 beta-arrestin, luminescence, 90 min; 100% = 57 uM dopamine signal | AID 624465 | P14416 | activation, % (concentration not given with the values); in the data active = activation above about 40%; inconclusive = about 15% to 40%; inactive = below about 15%; also: compound concentration not given in the record; the text of the record calls up to 30% inactive
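DiscoveRx PathHunter D2 beta-arrestin cells (2,100/well) attached overnight, then compound-stimulated 90 min at 37 C in HBSS/10 mM HEPES/0.1% Tween-20 buffer; beta-galactosidase complementation read by luminescence after 1 h at ambient temperature. Dopamine 57 uM final (EC100) as control.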
Six1-Eya2 blk: inhibitors of human Six1/Eya2 interaction | activity change, % (no concentration beside the values) | actives 0.56% (n = 360,000) | AlphaScreen GST-Six1/His-Eya2 binding, biochemical; active compounds read low; control for the full effect not named in the record; in the data active = activity change below about -65%; inconclusive = about -30% to -65%; inactive = above about -30%; also: % is scaled to controls: 0 for no effect and ±100 for the full control effect
Target sequence (O00167 whole entry, looked up): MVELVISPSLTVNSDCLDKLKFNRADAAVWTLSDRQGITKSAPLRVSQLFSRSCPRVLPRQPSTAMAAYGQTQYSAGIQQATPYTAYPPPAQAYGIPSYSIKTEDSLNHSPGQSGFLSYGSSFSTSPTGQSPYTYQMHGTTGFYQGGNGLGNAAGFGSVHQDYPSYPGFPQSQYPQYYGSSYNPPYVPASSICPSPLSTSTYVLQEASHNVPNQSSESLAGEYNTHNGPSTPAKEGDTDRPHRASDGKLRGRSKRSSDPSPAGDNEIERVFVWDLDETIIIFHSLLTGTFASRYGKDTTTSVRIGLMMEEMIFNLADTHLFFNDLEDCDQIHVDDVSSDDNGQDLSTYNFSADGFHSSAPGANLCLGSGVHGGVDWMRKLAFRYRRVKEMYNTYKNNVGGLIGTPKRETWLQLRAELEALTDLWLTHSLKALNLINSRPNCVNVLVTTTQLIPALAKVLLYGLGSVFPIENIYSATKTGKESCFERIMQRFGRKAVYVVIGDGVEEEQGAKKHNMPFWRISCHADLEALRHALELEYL
Target sequence (Q15475 whole entry, looked up): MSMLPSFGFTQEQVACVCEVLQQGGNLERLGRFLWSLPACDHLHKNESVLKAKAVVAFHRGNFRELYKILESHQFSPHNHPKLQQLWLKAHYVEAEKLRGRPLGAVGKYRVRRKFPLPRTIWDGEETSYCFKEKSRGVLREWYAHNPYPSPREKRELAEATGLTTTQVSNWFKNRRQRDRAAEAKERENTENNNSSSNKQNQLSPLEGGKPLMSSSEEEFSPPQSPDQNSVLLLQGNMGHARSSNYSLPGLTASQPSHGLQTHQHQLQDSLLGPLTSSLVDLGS
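AlphaScreen luminescence read after one hour at 37 °C in darkness. Pin-transferred compounds met GST-Six1 and His-Eya2 protein (5X stock 250 nM/500 nM) plus glutathione donor and Ni-chelate acceptor beads (5X, 50 ug/mL).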
D2 potentiator: human D2 receptor positive allosteric modulation | DiscoveRx D2 beta-arrestin cells, luminescence, 90 min; 100% = 57 uM dopamine signal | actives 0.23% (n = 360,000) | AID 624464 | potentiation, % (no concentration beside the values); active = potentiation of 50% or more; inconclusive = 30% to 50%; inactive = 30% or less;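 also: compound concentration not given in the record; tested on top of an EC20 dose of dopamine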
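PathHunter D2 cells, attached overnight at 37 deg C, received compound in DMSO plus dopamine at EC20 (50 nM final) for 90 min at 37 deg C. Beta-arrestin recruitment was read as luminescence after 1 h with detection reagent at ambient temperature.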
gsp antagonist: antagonists of gsp mutant (McCune-Albright syndrome). gsp-mutant cells, cAMP HTRF, 30 min; control for the full effect not named in the record. Potency, µM (doses to about 76.9 µM), inactives show top-dose activity change, negative = inhibition, usual class: inhibitors. actives 0.4% (n = 340,000). AID 624288; active = falling curve of any shape with a large fitted effect; inconclusive = falling curve, mostly with a smaller effect; inactive = flat or rising curve; cell line not stated here;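 also: intracellular cAMP measured with PDE inhibitor Ro 20-1724 present during compound exposure; potency is read from the fitted curve at half-maximal effect; % is scaled to controls: 0 for no effect and ±100 for the full control effect; nearly all actives have a fitted effect of over 65% in size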
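HTRF cAMP measurement after 30 min RT detection following 30 min, 37C compound treatment alongside […] (added as 300 uM solution) in G418-selected cells seeded at 2000/well and grown 16–24 h.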
The depositor's hits bear a star; [ ] = dose if it differs, or a comment.

The opening 2 records as a preview:
What do the screens show for `COc1ccc(CCNC(=S)Nc2cccc(C)c2)cc1`?
gsp agonist: 10.0%; CtBP-E1A inh: -1.4; D2 agonist: -1.0; Six1-Eya2 blk: -8.1; D2 potentiator: -29.5; gsp antagonist: 10.5%[15.4 µM]

What do the screens show for `Cc1cc(C(F)(F)F)n(-c2nc(C(=O)NNS(=O)(=O)c3ccccc3[N+](=O)[O-])cs2)n1`?
gsp agonist: -24.9%; CtBP-E1A inh: -11.7; D2 agonist: -0.1; Six1-Eya2 blk: -27.8; D2 potentiator: -10.0; gsp antagonist: -12.1%

This part in full, previewed entries included:
What do the screens show for `COc1ccc(CCNC(=S)Nc2cccc(C)c2)cc1`?
gsp agonist: 10.0%; CtBP-E1A inh: -1.4; D2 agonist: -1.0; Six1-Eya2 blk: -8.1; D2 potentiator: -29.5; gsp antagonist: 10.5%[15.4 µM]

What do the screens show for `Cc1cc(C(F)(F)F)n(-c2nc(C(=O)NNS(=O)(=O)c3ccccc3[N+](=O)[O-])cs2)n1`?
gsp agonist: -24.9%; CtBP-E1A inh: -11.7; D2 agonist: -0.1; Six1-Eya2 blk: -27.8; D2 potentiator: -10.0; gsp antagonist: -12.1%

How did Cc1cc(C(=O)NCC(=O)OC(C(=O)Nc2cc(C(F)(F)F)ccc2Cl)c2ccccc2)ccc1[N+](=O)[O-] (configuration not stated) do in these assays?
gsp agonist: -15.2%; CtBP-E1A inh: -1.2; D2 agonist: 2.3; Six1-Eya2 blk: 0.0; D2 potentiator: 3.2; gsp antagonist: -9.2%

What do the screens show for `CC(=O)Nc1nc2cc3c(cc2s1)OCO3`?
gsp agonist: -55.7%[inhibitor]; CtBP-E1A inh: -5.7; D2 agonist: -2.1; Six1-Eya2 blk: -2.6; D2 potentiator: 0.5; gsp antagonist: 10.6%

Results for Cc1c(CN2CCC(C(=O)Nc3cccc(-c4cccc(Cl)c4)c3)CC2)cnn1C ?
gsp agonist: 19.9%; D2 agonist: -3.4; Six1-Eya2 blk: 3.9; D2 potentiator: -8.5; gsp antagonist: 7.9%

What do the screens show for `O=C(C[N+]1(CC#Cc2ccccc2)CCCCC1)c1ccc(Cl)cc1`?
gsp agonist: -6.2%; D2 agonist: -8.4; Six1-Eya2 blk: -4.3; D2 potentiator: -15.2; gsp antagonist: 1.1%

Results for Cc1ccc(Oc2ncc(CN3CCOCC3)s2)cc1 ?
gsp agonist: -14.1%; CtBP-E1A inh: -3.3; D2 agonist: -1.6; Six1-Eya2 blk: 2.2; D2 potentiator: -5.1; gsp antagonist: 14.6%

How did O=C1NC(c2ccccc2)=C(c2ccc3ccccc3n2)C(c2ccncc2)N1 (configuration not stated) do in these assays?
gsp agonist: -43.5%[inhibitor]; CtBP-E1A inh: 7.2; D2 agonist: 1.0; Six1-Eya2 blk: 4.1; D2 potentiator: -19.8; gsp antagonist: -1.6%

What do the screens show for `COc1ccccc1OCC(=O)N/N=C(\C)c1ccc2ccccc2c1`?
gsp agonist: inconclusive; CtBP-E1A inh: 2.7; D2 agonist: 0.2; Six1-Eya2 blk: -9.3; D2 potentiator: -4.8

Results for C[C@H](CO)N1C[C@H](C)[C@@H](CN(C)C(=O)NC2CCCCC2)Oc2c(NC(=O)C3CCCCC3)cccc2C1=O ?
CtBP-E1A inh: 4.7; D2 agonist: -2.2; Six1-Eya2 blk: 1.4; gsp antagonist: -6.7%

Results for C[C@@H]1CN([C@@H](C)CO)C(=O)c2cc(NC(=O)C3CC3)ccc2O[C@H]1CN(C)C ?
gsp agonist: -1.2%; CtBP-E1A inh: -8.0; D2 agonist: -5.6; Six1-Eya2 blk: -7.1; D2 potentiator: -2.9; gsp antagonist: 20.3%

What do the screens show for `CCN1CCN(C(=O)c2nn(-c3ccccc3)c(=O)c3ccccc23)CC1`?
gsp agonist: -3.8%; CtBP-E1A inh: 10.6; D2 agonist: 1.7; Six1-Eya2 blk: 6.9; D2 potentiator: -7.0; gsp antagonist: -4.8%

Results for O=[N+]([O-])c1ccc2cc[nH]c2c1 ?
gsp agonist: -9.3%[15.4 µM]; CtBP-E1A inh: 1.9; D2 agonist: -10.6; Six1-Eya2 blk: 1.7; D2 potentiator: -5.0; gsp antagonist: -4.5%

How did CC(NS(=O)(=O)c1ccccc1)C(c1cccs1)N1CCN(c2ccccc2)CC1 (configuration not stated) do in these assays?
gsp agonist: 10.8%; CtBP-E1A inh: -20.4; D2 agonist: -0.9; Six1-Eya2 blk: -25.5; D2 potentiator: -3.3; gsp antagonist: -10.5%

Results for COC(=O)c1cc(NC(C)=O)ccc1N1CCOCC1 ?
gsp agonist: 16.2%; CtBP-E1A inh: 10.4; D2 agonist: 2.0; Six1-Eya2 blk: -3.6; D2 potentiator: 0.7; gsp antagonist: 1.4%

How did CCn1c(SCC(=O)N2CCC(C)CC2)nc2c(c1=O)SC(C)C2 (configuration not stated) do in these assays?
gsp agonist: -26.4%; CtBP-E1A inh: -1.7; D2 agonist: -0.4; Six1-Eya2 blk: 0.8; D2 potentiator: 4.8; gsp antagonist: -22.7%

How did c1ccc(CSc2ccc(-c3cccs3)nn2)nc1 do in these assays?
gsp agonist: 11.7%[15.4 µM]; CtBP-E1A inh: -21.1; D2 agonist: -1.0; Six1-Eya2 blk: -19.3; D2 potentiator: -19.6; gsp antagonist: 7.8%

Results for Cc1ccc(-n2nc(C)c(/C=N/n3c(C)n[nH]c3=S)c2Cl)cc1 ?
gsp agonist: -2.1%[15.4 µM]; CtBP-E1A inh: 3.9; D2 agonist: 6.2; Six1-Eya2 blk: -4.0; D2 potentiator: -7.0

How did CC(=O)Nc1ccc(C(=O)N2CCCCC2c2cc(C(=O)NC(C)C)no2)cc1 (configuration not stated) do in these assays?
CtBP-E1A inh: 10.1; D2 agonist: -2.6; Six1-Eya2 blk: 6.4; D2 potentiator: -4.8

How did CCOC(=O)C(NC(=O)CCC(=O)Nc1ccc(S(N)(=O)=O)cc1)C(O)c1ccccc1 (configuration not stated) do in these assays?
gsp agonist: 10.2%; CtBP-E1A inh: 4.6; D2 agonist: -1.6; Six1-Eya2 blk: 4.1; D2 potentiator: -7.5; gsp antagonist: 11.6%

What do the screens show for `O=C(NCCCCCCNC(=O)OCCO)OCCO`?
gsp agonist: 11.7%[15.4 µM]; CtBP-E1A inh: 7.3; D2 agonist: -0.7; Six1-Eya2 blk: 8.9; D2 potentiator: -5.8; gsp antagonist: 10.6%

How did Cc1cc2ccccn2c1C(=O)c1cc([N+](=O)[O-])cc([N+](=O)[O-])c1 do in these assays?
gsp agonist: 10.9%[15.4 µM]; CtBP-E1A inh: inconclusive; D2 agonist: 14.1; Six1-Eya2 blk: inconclusive; D2 potentiator: 29.3

Results for Cc1c(NC(=O)COC(=O)c2ncc(Cl)c(Cl)c2Cl)c(=O)n(-c2ccccc2)n1C ?
gsp agonist: 10.2%[15.4 µM]; CtBP-E1A inh: 4.4; D2 agonist: -1.3; Six1-Eya2 blk: -1.4; D2 potentiator: -1.4; gsp antagonist: -5.7%

Results for CSc1nsc(N/N=C/c2ccccc2)c1C#N ?
gsp agonist: 16.3%[15.4 µM]; CtBP-E1A inh: 0.0; D2 agonist: 3.0; Six1-Eya2 blk: 0.3; D2 potentiator: -0.3

Results for O=C(NCc1ccco1)/C(=C/c1ccccc1F)NC(=O)c1ccccc1 ?
gsp agonist: -72.0%[inhibitor]; CtBP-E1A inh: -12.4; D2 agonist: 10.6; Six1-Eya2 blk: 12.1; D2 potentiator: -13.0; gsp antagonist: 9.6%

How did CNC1(c2nnnn2-c2c(C)cccc2C)CCOC(C)(C)C1 (configuration not stated) do in these assays?
gsp agonist: 26.1%; CtBP-E1A inh: -1.3; D2 agonist: -5.6; Six1-Eya2 blk: 2.5; D2 potentiator: -11.5; gsp antagonist: 7.9%

Results for Cc1ccc(C2=NN(CCC(=O)NCc3ccc4c(c3)OCO4)C(=O)CC2)cc1 ?
gsp agonist: -33.9%[inhibitor]; CtBP-E1A inh: 4.1; D2 agonist: -0.2; Six1-Eya2 blk: 8.9; D2 potentiator: -8.4; gsp antagonist: -4.3%

What do the screens show for `CCOC(=O)CNc1nc(C(C)(C)C)nc2c1nnn2Cc1ccccc1Cl`?
gsp agonist: 8.7%; CtBP-E1A inh: 6.0; D2 agonist: -0.6; Six1-Eya2 blk: 4.2; D2 potentiator: -3.1; gsp antagonist: -7.9%

What do the screens show for `COCCN(C(=O)c1cc(S(=O)(=O)N2CCCCC2)ccc1Cl)c1c(N)n(CC(C)C)c(=O)[nH]c1=O`?
gsp agonist: 10.0%[15.4 µM]; CtBP-E1A inh: 3.6; D2 agonist: -6.7; Six1-Eya2 blk: -2.2; D2 potentiator: -12.1; gsp antagonist: 12.4%

What do the screens show for `O=c1c(C(c2ccc(Cl)cc2)c2c(O)nc3n(c2=O)CCCS3)c(O)nc2n1CCCS2`?
gsp agonist: -6.5%[15.4 µM]; CtBP-E1A inh: -27.1; D2 agonist: -1.1; Six1-Eya2 blk: -20.8; D2 potentiator: -1.8; gsp antagonist: 8.3%

What do the screens show for `COc1cc(OC)cc(-c2c(C#Cc3ccsc3)c3cc(-c4ccc(OC)c(OC)c4)ccc3n2C)c1`?
gsp agonist: 14.3%; CtBP-E1A inh: -2.0; D2 agonist: -1.9; Six1-Eya2 blk: -3.1; D2 potentiator: -5.6; gsp antagonist: 0.9%

Results for CCN1CCN(C(=O)c2ccc3c(c2)N(Cc2ccccc2)C(=O)c2ccccc2S3=O)CC1 (configuration not stated) ?
gsp agonist: -30.7%[inhibitor]; CtBP-E1A inh: -2.3; D2 agonist: -3.1; Six1-Eya2 blk: 3.9; D2 potentiator: -15.1; gsp antagonist: -4.1%

How did O=C(COC(=O)CCC1CCCC1)NCc1ccc(Cl)cc1 do in these assays?
gsp agonist: -9.1%; CtBP-E1A inh: 2.8; D2 agonist: -1.0; Six1-Eya2 blk: 11.8; D2 potentiator: -3.3; gsp antagonist: 8.5%

What do the screens show for `COc1ccc(CN2C(=O)c3ccccc3C(/C=N/OCc3ccc(Cl)cc3)C2=O)cc1` (configuration not stated)?
gsp agonist: -14.6%; CtBP-E1A inh: -1.7; D2 agonist: -0.4; Six1-Eya2 blk: 6.8; D2 potentiator: 1.6; gsp antagonist: 2.9%

How did CC1(C)CC(=O)C2=C(C1)N(N1CCOCC1)C(N)=C(C#N)C2c1cccs1 (configuration not stated) do in these assays?
gsp agonist: 5.8%[15.4 µM]; CtBP-E1A inh: 5.4; D2 agonist: -2.1; Six1-Eya2 blk: 3.1; D2 potentiator: -5.0; gsp antagonist: -6.1%

Results for O=c1[nH]cnc2c1sc1nc(C(F)F)cc(-c3ccccc3)c12 ?
gsp agonist: inconclusive; CtBP-E1A inh: 1.3; D2 agonist: -0.1; Six1-Eya2 blk: 7.6; D2 potentiator: -12.5; gsp antagonist: 2.3%

Results for Cc1ccc(S(=O)(=O)N2CC(C)N(C(=O)N3CCOCC3)C2C)cc1 (configuration not stated) ?
gsp agonist: -1.1%[15.4 µM]; CtBP-E1A inh: 0.0; D2 agonist: -1.0; Six1-Eya2 blk: -5.5; D2 potentiator: -4.6; gsp antagonist: 10.4%

Compound activity: PubChem, National Center for Advancing Translational Sciences (NCATS)
